Screens (PubChem)
2A StopGo: FMDV 2A StopGo reporter, luciferase signal; Potency, µM (doses to about 57.9 µM), without a hit: at the highest dose signal change, negative = less light; human cells with a luciferase reporter of 2A StopGo recoding; control for the full effect not named in the record; AID 1159524; 410,000 compounds, 1.2% hits; active = well fitted falling curve with a large enough effect; inconclusive = small, poorly fitted or top-dose-only effect; inactive = no such curve, though single readings can be large or run the other way; tested in HEK293T cells; note: % is set by controls: 0 for no effect and ±100 for the full control effect; nearly all actives have a fitted effect of over 45% in size; luciferase light after 4 h
NS1 function inh: blocks influenza NS1 protein function; Potency, µM (top dose mostly 46.1 µM), without a hit: at the top dose activity, positive = more growth; 270,000 compounds, 0.4% hits; S. cerevisiae slowed by influenza A NS1, growth recovery by OD600; note: actives are rising curves; nearly all actives have a fitted effect of over 50% in size
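Read-out: OD600 growth recovery of NS1-expressing budding yeast. Cells grown overnight at 30C in -URA glucose medium, washed, resuspended and diluted 1:100 in 2% galactose assay medium, pH 6.0. Same strain lacking NS1 served as positive control.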
RE007 growth inh: less growth of the S. pombe RE007 Vpr strain; Potency, µM (top dose mostly 92.2 µM), inactives show top-dose activity change, negative = less growth; S. pombe RE007 Vpr strain, BacTiter-Glo ATP luminescence, 24 h; control for the full effect not named in the record; AID 651644; 360,000 compounds, 0.21% hits; active = well fitted falling curve with a large enough effect; inconclusive = small, poorly fitted or top-dose-only effect; inactive = no such curve, though single readings can be large or run the other way;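 note: % is set by controls: 0 for no effect and ±100 for the full control effect; nearly all actives have a fitted effect of over 50% in size; the assay follows cell death caused by Vpr and the record does not say whether a fall means rescue or toxicity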
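Fission yeast RE007 carrying one integrated HIV-1 vpr copy, seeded at OD 0.01 in PMG+AL medium with 23 nL pinned compound. Grown 24 h at 30 degrees; viability read by BacTiter-Glo luminescence after 5 min.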
Cruzain inh Det: inhibitors of Trypanosoma cruzi cruzain with detergent; Potency, µM, without a hit: max response, negative = inhibition, most hits filed as inhibitors; AID 1478; purified cruzain, Z-FR-AMC fluorescence, 0.01% Triton; 200,000 compounds, 0.43% hits; active = well fitted curve in the direction sought with a large enough effect; inconclusive = small, poorly fitted or top-dose-only effect, or another doubt; inactive = no such curve, though single readings can be large; an effect the other way counts as inactive or inconclusive;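 note: plate controls were neutral wells for no effect and buffer without enzyme for full effect; nearly all actives have a fitted effect of over 40% in size; top concentration of the series not given in the record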
Target sequence (P25779 123-467 limits assumed): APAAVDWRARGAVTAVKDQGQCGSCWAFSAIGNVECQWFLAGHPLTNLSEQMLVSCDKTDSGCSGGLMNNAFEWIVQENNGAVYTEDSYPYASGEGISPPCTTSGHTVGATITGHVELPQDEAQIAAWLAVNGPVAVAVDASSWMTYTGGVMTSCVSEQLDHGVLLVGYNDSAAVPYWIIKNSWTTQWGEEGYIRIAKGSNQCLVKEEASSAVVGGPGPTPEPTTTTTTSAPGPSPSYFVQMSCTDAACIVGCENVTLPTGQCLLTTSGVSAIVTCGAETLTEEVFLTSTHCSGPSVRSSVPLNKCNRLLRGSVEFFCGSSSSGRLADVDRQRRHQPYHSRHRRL
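Enzyme 1.5 nM, Z-FR-AMC 2 uM, NaOAc 100 mM pH 5.5, DTT 5 mM, Triton X-100 0.01%; 15 min RT compound preincubation; kinetic ex360/em450, 60 s delta.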
Cruzain inh noDet: inhibitors of Trypanosoma cruzi cruzain without detergent. 200,000 compounds, 2.3% hits. purified cruzain, Z-FR-AMC fluorescence, no detergent. Potency, µM, for inactives: max response, negative = inhibition, most hits filed as inhibitors. AID 1476. P25779; active = well fitted curve in the direction sought with a large enough effect; inconclusive = small, poorly fitted or top-dose-only effect, or another doubt; inactive = no such curve, though single readings can be large; an effect the other way counts as inactive or inconclusive;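 note: plate controls were enzyme without inhibitor for no effect and buffer without enzyme for full effect; nearly all actives have a fitted effect of over 40% in size; top concentration of the series not given in the record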
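Purified cruzain at 1.5 nM, pre-incubated 15 min with compound at room temperature in 100 mM sodium acetate pH 5.5, 5 mM DTT, 0.00005% Triton X-100. Reaction started with 2 uM Z-FR-AMC; AMC fluorescence increase over 60 s gives rate.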
SARS PLpro yeast: blocks SARS-CoV papain-like protease in a yeast assay. AID 485353. S. cerevisiae expressing SARS-CoV PLpro, growth rescue; control for the full effect not named in the record. 330,000 compounds, 0.19% hits. Potency, µM (series often up to 32.9 µM), without a hit: at the highest dose activity, positive = growth rescue; note: 0% is about no effect; nearly all actives have a fitted effect of over 55% in size; growth read by luminescence after 48 h
Lassa entry inh: inhibitors of Lassa virus binding or cell entry; Lassa virus pseudotype entry inhibition, cell reporter; control for the full effect not named in the record; Potency, µM (doses to about 37.9 µM), for the others: top-dose activity change, negative = inhibition, actives largely listed as inhibitors; 300,000 compounds, 1.2% hits; active means well fitted inhibition curve with a large enough effect; inconclusive means small, poorly fitted or top-dose-only effect, or effect the other way; inactive means flat fitted curve, though single readings scatter; tested in HEK293 cells; note: % is set by controls: 0 for no effect and ±100 for the full control effect; nearly all actives have a fitted effect of over 50% in size; luciferase read-out
MARV entry inh: blocks Marburg virus binding to or entry into cells | Marburg virus pseudotyped entry inhibition, cell reporter; control for the full effect not named in the record; about a third of the inactives were read at about 46 µM | AID 540276 | 300,000 compounds, 1.8% hits | Potency, µM (series often up to 37.8 µM), for the others: at the top dose activity change, negative = inhibition, actives largely listed as inhibitors; active = well fitted inhibition curve with a large enough effect; inconclusive = small, poorly fitted or top-dose-only effect, or effect the other way; inactive = flat fitted curve, though single readings scatter; tested in HEK293 cells; about a fifth of its hits are not listed in these tables; note: % is set by controls: 0 for no effect and ±100 for the full control effect; luciferase read-out
Numbers without * were called inactive; ? = inconclusive; nt = no result given; [ ] = remark or other dose. Unless noted, calls come from the whole dose curve; as a rule, active means well fitted rising curve with a large enough effect; inconclusive means small, poorly fitted or top-dose-only effect; inactive means no such curve, though single readings can be large or run the other way. Potency is the fitted concentration of half-maximal effect.

canonical_smiles	2A StopGo	NS1 function inh	RE007 growth inh	Cruzain inh Det	Cruzain inh noDet	SARS PLpro yeast	Lassa entry inh	MARV entry inh
Cc1ccc(C2=NS(=O)(=O)N(C)C(C(=O)N(C)C3CCCCC3)=C2)cc1	-34%	-9%	-12%	nt	nt	2%	nt	nt
O=C(O)CC1S/C(=N/N=C2CCCCC2)N(c2ccccc2)C1=O (stereo not given)	-19%	?	6%	0.9%	0%	-3%	9%	26%
CC(C)OC(=O)CSc1nc2c(c(C3CC=CCC3)c1C#N)CCC2 (stereo not given)	nt	-7%	-3%	1.1%	3%	2%	?	?
CC1(C(=O)N2CCOCC2)CCCCC1	3%	-4%	4%	nt	nt	0%	nt	nt
Cc1ccc(C(=O)CC2(O)C(=O)N(Cc3ccccc3)c3ccccc32)o1 (stereo not given)	?	0%[9.22 µM]	-1%	1.5%	-1%	1%	1%	-2%
COc1ccc(S(=O)(=O)N(C)CC(=O)NCCCn2ccnc2)cc1Cl	-3%	9%	-15%	nt	nt	3%	-10%	?
CCOc1ccc(NC(=O)COC(=O)C2CC2C)cc1 (stereo not given)	40%[activator]	nt	-13%	nt	nt	0%	-1%[46.1 µM]	24%[46.1 µM]
O=c1c2ccccc2n(Cc2cccc(Cl)c2)c(=O)n1CCc1ccccc1	-23%	nt	nt	-2.9%	-9%	nt	20%[46.1 µM]	18%[46.1 µM]
O=C(COC(=O)COc1ccccc1)NC1CCS(=O)(=O)C1 (stereo not given)	14%	nt	9%	nt	nt	-4%	4%[46.1 µM]	-2%[46.1 µM]
COc1ccc(Cl)cc1S(=O)(=O)N(C)CC(=O)NCCCn1ccnc1	8%	-3%	-8%	nt	nt	3%	15%	-5%[46.1 µM]
COc1ccc(-c2cc(C(=O)NCCN3CCOCC3)c3cc(C(C)C)ccc3n2)cc1	-13%	5%	-2%	nt	nt	-1%	nt	nt
CCN1C(=O)c2ccccc2S(=O)c2ccc(C(=O)NCc3ccccc3OC)cc21 (stereo not given)	-14%	nt	nt	-1.5%	-1%	nt	15%[46.1 µM]	5%[46.1 µM]
CCOC(=O)Cn1c(C)[n+](CC(=O)c2ccccc2)c2ccccc21	9%	-3%	-20%	nt	nt	0%	-2%[46.1 µM]	16%[46.1 µM]
CC(C)CN(c1ccccc1)S(=O)(=O)c1nnc(NC(=O)C(C)C)s1	-2%	0%	4%	nt	nt	0%	nt	nt
COc1ccc(N(C(=O)c2cccc(C)c2)S(=O)(=O)c2ccc(Cl)cc2)cc1	-19%	nt	nt	-3.0%	-30%	nt	?	nt
Cc1cccc(OCc2nnc(SCC(=O)Nc3nccs3)o2)c1	-9%	5%	25%	nt	nt	-4%	nt	nt
CCOC(=O)c1c(NC(=O)C2C3C=CC(C3)C2(C)C(=O)O)sc2c1CCCC2 (stereo not given)	0%	-3%	5%	-16%	-25%	-20%	-4%	-15%
CCC(=O)Nc1ccc(C(=O)n2nc(C)cc2C)cc1	-21%	-26%	-9%	2.2%	-8%	8%	22%	-1%[46.1 µM]
Cc1nc2scc(C)n2c(=O)c1S(=O)(=O)N1CCN(c2ccccn2)CC1	0%	6%	-3%	nt	nt	1%	-2%	-1%[46.1 µM]
CCc1ccc(S(=O)(=O)N2CCN(c3ncccn3)CC2)cc1	-9%	-3%	-12%	nt	nt	10%	-14%[46.1 µM]	0%[46.1 µM]

(continued)
canonical_smiles	2A StopGo	NS1 function inh	RE007 growth inh	Cruzain inh Det	Cruzain inh noDet	SARS PLpro yeast	Lassa entry inh	MARV entry inh
Cc1cc(C(=O)NCC(=O)OCC(=O)N(C)C2CCCCC2)ccc1[N+](=O)[O-]	-6%	-4%	5%	?	?	15%	17%	-3%[46.1 µM]
COc1cc(C(=O)OC(C)C(=O)NCC2CCCCC2)cc(NC(=O)c2ccco2)c1OC (stereo not given)	?	5%	-1%	0.6%	-4%	3%	?	2%[46.1 µM]
CCOC(=O)c1cccc(NC(=O)c2cnn(-c3ccccc3)c2-n2cccc2)c1	?	nt	nt	-1.0%	-4%	nt	3%[46.1 µM]	?
N/C(CCN1CCCCC1)=N/O	-21%	4%	0%	6.8%	3%	nt	11%	-5%
CCC1CCCCN1CCCNC(=O)c1ccc2c(c1)N(Cc1cccc(C)c1)C(=O)c1ccccc1S2(=O)=O (stereo not given)	-3%	nt	nt	2.6%	0%	nt	?	?
Cc1nc(-c2ccc(S(=O)(=O)NCc3ccccn3)s2)cs1	23%	2%	-5%	nt	nt	0%	nt	nt
O=S(=O)(c1ccc(OCc2nc3ccccc3s2)c(Cl)c1)N1CCOCC1	12%	-19%	-5%	1.0%	?	1%	?	5%
COc1ccc(/C=C/C(=O)c2ccc3c4c(cccc24)CC3)cc1OC	18µM*	4%	?	-5.6%	13%	-4%	?	?
CC(Oc1ccc(Br)cc1)C(=O)N(Cc1nc(-c2ccccc2)no1)C(C)C (stereo not given)	?	nt	nt	-9.3%	?	nt	-16%[46.1 µM]	?
COc1nccnc1NS(=O)(=O)c1ccc(NC(=S)NC(=O)c2ccccc2)cc1	48%[activator]	17%	-15%	-5.7%	5%	-25%	-10%	?
COc1ccc(-c2c(C)nc(N)nc2-c2ccc(OCc3ccc(C)cc3)cc2O)cc1OC	-17%	3.2µM*	2%	-5.8%	?	5%	-17%	?
Cc1cccc(N2CCN(C(=O)c3ccc4c(c3)N(Cc3ccccc3F)C(=O)c3ccccc3S4=O)CC2C)c1 (stereo not given)	-12%	nt	nt	0.3%	-7%	nt	?	13µM*
CC(C)Oc1ccc(CCc2nnc(SC(C)C(=O)O)n2-c2ccccc2)cc1 (stereo not given)	-2%	9%	12%	nt	nt	0%	-6%	3%[46.1 µM]
O=C(N/N=C/c1cc(Br)c(O)c(Br)c1)c1cc2c(ccc3ccccc32)o1	?	-75%	-4%	nt	nt	-21%	-16%	15%
Cc1cc(NC(=O)c2cccs2)no1	21%	4%	-7%	nt	nt	1%	?	?
CCOC(=O)CSC1=C(C#N)C(c2ccco2)C(C(=O)OCc2ccccc2)=C(C)N1 (stereo not given)	?	-61%	0%	-12%	-16%	-11%	?	?
CC(=O)NCCNC(=O)c1ccc(-n2c(C)ccc2C)cc1	22%	nt	-3%	nt	nt	-3%	-21%[46.1 µM]	?
CCn1c(-c2ccccc2)c(C(=O)CCl)c2ccccc21	18µM*	8%	-8%	nt	nt	-19%	nt	nt
CCOc1ccc(-c2nnn(CC(=O)NCc3cccs3)n2)cc1	38%	1%	9%	1.7%	7%	1%	-3%	10%
O=C(NCCc1csc(-c2ccccc2)n1)c1ccco1	-6%	-42%	1%	nt	nt	-4%	nt	nt

Further entries follow.
canonical_smiles	2A StopGo	NS1 function inh	RE007 growth inh	Cruzain inh Det	Cruzain inh noDet	SARS PLpro yeast	Lassa entry inh	MARV entry inh
COc1ccc(N/N=C(/N=Nc2nc(C)cc(=O)[nH]2)c2ccccc2)cc1	-8%	-46%	?	-0.3%	?	?	5µM*	4.5µM*
COc1cccc(-n2c(CN3CCN(c4cccc(C)c4)C(C)C3)nc3ccc([N+](=O)[O-])cc3c2=O)c1 (stereo not given)	-18%	10%	4%	-3.4%	0%	18%	?	-26%
CCCCCCNC(=O)CC(NS(=O)(=O)c1ccc(NC(C)=O)cc1)C(C)C (stereo not given)	-7%	1%	-14%	-2.4%	-5%	4%	-23%	1%
CCOc1ccc(NC(=O)C(=O)NCCc2csc3nc(-c4ccccc4F)nn23)cc1	-4%	nt	nt	-1.8%	-1%	nt	14%[46.1 µM]	nt
CCN(CC)S(=O)(=O)c1ccc(NC(=O)c2ccc(N(C)S(C)(=O)=O)cc2)cc1	4µM*	19%	-6%	-3.5%	?	27%	?	-53%
Cc1ccc(N2C(=O)C3C(C2=O)N2CCCN2C3c2ccccc2)cc1C (stereo not given)	-10%	4%	5%	nt	nt	0%	-6%	1%[46.1 µM]
C=CCn1c(-c2cc(Cl)ccc2OC)n[nH]c1=S	?	7%	13%	4.0%	-4%	1%	-1%	-7%
Cc1ccc(-c2nnc(Nc3ccc(O)cc3)c3ccccc23)cc1S(=O)(=O)NCCO	58%[activator]	-23%	2%	nt	nt	21%	nt	nt
CC1CCc2c(sc3nc(CN4CCOCC4)nc(NS(=O)(=O)c4cccc([N+](=O)[O-])c4)c23)C1 (stereo not given)	5%	17%	69%	-7.9%	?	-36%	-6%	2%
CC(=O)c1c(C)[nH]c(C(=O)COC(=O)c2cccnc2Cl)c1C	25%	nt	5%	nt	nt	-3%	?	4%
COc1ccc(S(=O)(=O)Nc2ccccc2N2CCOCC2)cc1[N+](=O)[O-]	-7%	-5%	-1%	nt	nt	-4%	3%	-6%[46.1 µM]
CCCCC(NS(=O)(=O)c1ccc(OC)cc1)C(=O)O (stereo not given)	10%	6%	15%	9.5%	-1%	8%	-2%	1%
Cc1ccc(-c2n[nH]c(=S)n2/N=C/c2ccc(C(=O)O)cc2)cc1	-5%	9%	-5%	nt	nt	5%	2%[46.1 µM]	25%[46.1 µM]
Cc1oc2c(cc(NS(=O)(=O)c3ccc(F)cc3)c3ccccc32)c1C(=O)OCc1ccccc1	22%	nt	nt	0.3%	?	nt	5%[46.1 µM]	-8%[46.1 µM]
CN(CC(=O)NC(=O)NCc1ccco1)Cc1nc2ccccc2c(=O)[nH]1	3%	-1%	-6%	-1.7%	9%	9%	-2%	3%
CC(=O)Nc1nonc1-c1ccccc1	-1%	2%	-5%	1.1%	-6%	5%	0%	8%
O=C(COC(=O)COc1ccc(Br)cc1)NCCC1=CCCCC1	0%	-6%	3%	-5.3%	-3%	-3%	?	?
